Cruzain Triton = qHTS Assay for Promiscuous and Specific Inhibitors of Cruzain (with detergent); Potency, µM, for the others: max response, negative = inhibition, hits mostly inhibitors; Cruzipain (Trypanosoma cruzi), P25779; purified cruzain, Z-FR-AMC fluorescence, 0.01% Triton; actives 0.43% (n = 200,000); active = well fitted curve in the direction sought with a large enough effect; inconclusive = small, poorly fitted or top-dose-only effect, or another doubt; inactive = no such curve, though single readings can be large; an effect the other way counts as inactive or inconclusive;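 note: plate controls were neutral wells for no effect and buffer without enzyme for full effect; nearly all actives have a fitted effect of over 40% in size; top concentration of the series not given in the record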
Target sequence (P25779 123-467 limits assumed): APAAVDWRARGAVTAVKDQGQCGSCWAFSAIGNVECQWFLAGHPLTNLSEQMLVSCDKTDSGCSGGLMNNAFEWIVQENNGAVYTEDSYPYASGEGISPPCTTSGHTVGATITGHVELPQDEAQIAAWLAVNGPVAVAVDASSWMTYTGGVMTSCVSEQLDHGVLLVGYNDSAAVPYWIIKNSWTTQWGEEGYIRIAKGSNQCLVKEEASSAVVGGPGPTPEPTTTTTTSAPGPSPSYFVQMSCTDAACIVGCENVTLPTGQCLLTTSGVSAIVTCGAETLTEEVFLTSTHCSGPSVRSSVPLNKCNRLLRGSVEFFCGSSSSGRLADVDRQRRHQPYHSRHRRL
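Compounds were screened in titration against cruzain (1.5 nM) with 0.01% Triton X-100 to counter colloidal aggregation. Activity was the AMC fluorescence increase over 60 s after adding 2 uM Z-FR-AMC at pH 5.5.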
LASV entry inh = qHTS for Inhibitors of binding or entry into cells for Lassa Virus; Lassa virus pseudotype entry inhibition, cell reporter; control for the full effect not named in the record; Potency, µM (series often up to 37.9 µM), for inactives: at the highest dose activity change, negative = inhibition, actives largely listed as inhibitors; actives 1.2% (n = 300,000); active means well fitted inhibition curve with a large enough effect; inconclusive means small, poorly fitted or top-dose-only effect, or effect the other way; inactive means flat fitted curve, though single readings scatter; tested in HEK293 cells; note: % is set by controls: 0 for no effect and ±100 for the full control effect; nearly all actives have a fitted effect of over 50% in size; luciferase read-out
Marburg entry inh = qHTS for inhibitors of binding or entry into cells for Marburg Virus | Marburg virus pseudotyped entry inhibition, cell reporter; control for the full effect not named in the record; about a third of the inactives were read at about 46 µM | Potency, µM (highest dose often 37.8 µM), without a hit: top-dose activity change, negative = inhibition, actives largely listed as inhibitors | actives 1.8% (n = 300,000) | AID 540276, 2011; active = well fitted inhibition curve with a large enough effect; inconclusive = small, poorly fitted or top-dose-only effect, or effect the other way; inactive = flat fitted curve, though single readings scatter; tested in HEK293 cells; about a fifth of its hits are not listed in these tables; note: % is set by controls: 0 for no effect and ±100 for the full control effect; luciferase read-out
RE007 growth inh = qHTS Assay for Inhibitors of the HIV-1 protein Vpr. S. pombe RE007 Vpr strain, BacTiter-Glo ATP luminescence, 24 h; control for the full effect not named in the record. Potency, µM (series often up to 92.2 µM), without a hit: top-dose activity change, negative = less growth. actives 0.21% (n = 360,000). AID 651644, 2012; active = well fitted falling curve with a large enough effect; inconclusive = small, poorly fitted or top-dose-only effect; inactive = no such curve, though single readings can be large or run the other way;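 note: % is set by controls: 0 for no effect and ±100 for the full control effect; nearly all actives have a fitted effect of over 50% in size; the assay follows cell death caused by Vpr and the record does not say whether a fall means rescue or toxicity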
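Fission yeast strain RE007, carrying one chromosomally integrated HIV-1 vpr copy, was seeded at OD 0.01 in PMG+AL medium with 23 nL pinned compound. After 24 h at 30 °C and 99% humidity, viability was read by BacTiter-Glo luminescence.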
NS1 function inh = qHTS Assay for Inhibitors of Influenza NS1 Protein Function; S. cerevisiae slowed by influenza A NS1, growth recovery by OD600; Potency, µM (titrated, usually from 46.1 µM), inactives show at the top dose activity, positive = more growth; actives 0.4% (n = 270,000); note: actives are rising curves; nearly all actives have a fitted effect of over 50% in size
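Recovery from NS1-induced slow growth read by OD600 in budding yeast switched to galactose assay medium (pH 6.0, -URA) at 1:100 dilution. Compound 23 nl per well; the matching strain lacking NS1 serves as control.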
2A StopGo = High Throughput Screening for Foot and Mouth Disease Virus Antivirals. human cells with a luciferase reporter of 2A StopGo recoding; control for the full effect not named in the record. Potency, µM (titrated, usually from 57.9 µM), for inactives: top-dose signal change, negative = less light. actives 1.2% (n = 410,000). AID 1159524, 2015; active = well fitted falling curve with a large enough effect; inconclusive = small, poorly fitted or top-dose-only effect; inactive = no such curve, though single readings can be large or run the other way; tested in HEK293T cells; note: % is set by controls: 0 for no effect and ±100 for the full control effect; nearly all actives have a fitted effect of over 45% in size; luciferase light after 4 h
SARS PLpro yeast = qHTS of Yeast-based Assay for SARS-CoV PLP; actives 0.19% (n = 330,000); Potency, µM (titrated, usually from 32.9 µM), for the others: top-dose activity, positive = growth rescue; S. cerevisiae expressing SARS-CoV PLpro, growth rescue; control for the full effect not named in the record; note: 0% is about no effect; nearly all actives have a fitted effect of over 55% in size; growth read by luminescence after 48 h
Cruzain noTriton = qHTS Assay for Promiscuous and Specific Inhibitors of Cruzain (without detergent) | Cruzipain (Trypanosoma cruzi), P25779 | purified cruzain, Z-FR-AMC fluorescence, no detergent | Potency, µM, for the others: max response, negative = inhibition, actives largely listed as inhibitors | actives 2.3% (n = 200,000); active = well fitted curve in the direction sought with a large enough effect; inconclusive = small, poorly fitted or top-dose-only effect, or another doubt; inactive = no such curve, though single readings can be large; an effect the other way counts as inactive or inconclusive;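 note: plate controls were enzyme without inhibitor for no effect and buffer without enzyme for full effect; nearly all actives have a fitted effect of over 40% in size; top concentration of the series not given in the record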
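Purified cruzain at 1.5 nM, pre-incubated 15 min with compound at room temperature in 100 mM sodium acetate pH 5.5, 5 mM DTT, 0.00005% Triton X-100. Reaction started with 2 uM Z-FR-AMC; AMC fluorescence increase over 60 s gives rate.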
Active calls of the source: *; u = inconclusive; x = not tested or not shown; [ ] = dose if it differs, or a comment. Unless noted, calls come from the whole dose curve; as a rule, active means well fitted rising curve with a large enough effect; inconclusive means small, poorly fitted or top-dose-only effect; inactive means no such curve, though single readings can be large or run the other way. Potency is the fitted concentration of half-maximal effect.

SMILES	Cruzain Triton	LASV entry inh	Marburg entry inh	RE007 growth inh	NS1 function inh	2A StopGo	SARS PLpro yeast	Cruzain noTriton
O=C(c1ccc(S(=O)(=O)N2CCCC2)cc1)N1CCC(CN2C(=O)c3cccc4cccc(c34)C2=O)CC1	x	7.4%	2.8%[46.1 µM]	28.2%	7.4%	0.0%	0.4%	x
COc1cccc(-c2nnc(-c3ccccc3NC(=O)c3cccc(C(F)(F)F)c3)o2)c1	-0.1%	-1.0%[46.1 µM]	26.4%[46.1 µM]	x	x	36.3%[activator]	x	0.9%
CCOC(=O)c1c(C)[nH]c(C)c1S(=O)(=O)N1CCCC(C(=O)Nc2ccccc2OCC)C1 (stereo not drawn)	0.3%	-1.7%[46.1 µM]	x	x	x	19.2%	x	7.2%
COc1cccc(C2C(C(=O)c3sc(C)nc3C)=C(O)C(=O)N2CCN(C)C)c1OC (stereo not drawn)	-10.3%	x	x	x	8.91µM*	x	-2.7%	-9.7%
CC(C)c1ccc(NC(=O)c2ccc(F)c(S(=O)(=O)N3CCc4ccccc4C3)c2)cc1	0.1%	u	x	x	x	u	x	-5.1%
Cc1cccc2cc(CN(CC3CCCO3)S(=O)(=O)c3ccccc3)c3nnnn3c12 (stereo not drawn)	-4.1%	x	x	x	-0.3%	x	3.4%	1.8%
CCOC(=O)Cn1nc(-c2ccccc2)ccc1=O	3.2%	4.4%	-0.8%	3.2%	-7.8%	9.2%	0.8%	-4.0%
COc1ccc(CC(=O)Nc2cc(-c3cn4cccnc4n3)ccc2OC)cc1	-5.6%	21.2%[46.1 µM]	x	x	x	-6.5%	x	2.0%
O=C1C2CC=CCC2C(=O)N1c1ccc(NCCc2ccccc2F)c([N+](=O)[O-])c1 (stereo not drawn)	-4.6%	19.5%	10.2%	-24.4%	8.2%	14.2%	-9.0%	-23.4%
N#Cc1ccc(C(=O)Nc2ccc([N+](=O)[O-])cc2)c(F)c1	x	10.9%	-17.0%[46.1 µM]	3.4%	4.0%	24.4%	0.3%	x
COc1ccc(Cc2nc3ccc(C(=O)NCCn4ccnc4C)cc3o2)cc1OC	x	19.5%	22.5%	-15.5%	2.7%	18.5%	6.1%	x
Cn1c(NC(=O)c2ccc(F)c(F)c2)cc(=O)n(C)c1=O	2.2%	x	x	-3.7%	-5.1%	-4.8%	3.3%	-7.6%
O=C(O)C1CCCCC1C(=O)NC1CCCCC1 (stereo not drawn)	5.0%	0.8%	15.8%	7.4%	11.9%	-21.4%	-2.0%	2.5%
COc1ccc(-c2ncc(CN3CCN(CCC(C)C)C(CCO)C3)cn2)cc1 (stereo not drawn)	x	8.5%[46.1 µM]	u	1.7%	-2.6%	0.0%	0.8%	x
CN1CCN(C(=O)CSc2ccc(C(F)(F)F)cc2[N+](=O)[O-])CC1	-2.9%	19.6%	-10.2%	14.0%	-5.7%	-6.8%	-26.2%	-4.4%
O=C(CSc1nc2ccccc2[nH]1)N/N=C/C=C\c1ccccc1[N+](=O)[O-]	-7.0%	-2.8%	u	x	3.9%	-27.8%	-1.7%	10.4%
CCOC(=O)C1CCN(S(=O)(=O)c2c(C)[nH]c(=O)[nH]c2=O)CC1	1.4%	12.7%	28.7%	29.3%	3.0%	-11.0%	0.3%	u
O=C(NCc1ccccc1)c1ccc(Cl)nc1	x	-6.0%	u	1.5%	0.0%	14.2%	-1.1%	x
CC(=O)c1cc(CN2CCN(Cc3ccccc3)C(CCO)C2)cs1 (stereo not drawn)	x	5.3%[46.1 µM]	u	-14.6%	-1.0%	-10.8%	-0.2%	x
COC(=O)c1c(NC(=O)c2cccc(N3C(=O)CCC3=O)c2)sc2c1CCN(C(C)=O)C2	x	x	x	11.5%	0.7%	-12.3%	1.4%	x
COc1cccc(NC(=O)C2CCN(c3ccc(Sc4ccc(C)cc4)nn3)CC2)c1	-5.1%	-3.3%[46.1 µM]	-2.2%[46.1 µM]	x	x	15.3%	x	5.0%
CCc1ccc2[nH]c(=O)c(C(c3nnnn3Cc3ccccc3)N3CCOCC3)cc2c1 (stereo not drawn)	-4.3%	-4.2%	-9.3%	-17.9%	0.6%	-14.8%	u	-2.8%
CCn1ncc2c(OCc3ccc(C#N)cc3)cc(C)nc21	-3.7%	-21.7%	u	16.8%	-46.2%	u	-10.1%	-2.7%
COc1cc(/C=N/NC(=O)c2ccccn2)cc2c1OCO2	-8.9%	4.2%	10.0%[46.1 µM]	-18.8%	-5.3%	50.6%[activator]	-4.1%	6.0%
Cc1ccc(CNC(=O)Cn2cnc3c(NC(=O)OCc4ccccc4)ncnc32)o1	x	x	-0.3%	-4.8%	x	24.0%	-1.0%	x
COc1ccc(C(=O)Nc2ccccc2Cc2ccccc2)c(OC)c1	-1.3%	-19.5%	5.3%	16.9%	-10.3%	-4.1%	-16.3%	-4.0%
Cc1ccc(C(=O)NCCNC(=O)c2ccccn2)cc1	x	18.8%[46.1 µM]	-13.6%[46.1 µM]	-8.8%	3.1%	16.4%	0.5%	x
CCOc1ccccc1OCCCC(=O)Nc1sccc1C(N)=O	-8.1%	0.6%	u	1.6%	-0.4%	-4.9%	-1.2%	6.1%
COc1ccc(S(=O)(=O)N2CCC(C(=O)Nc3cccc(C(C)=O)c3)CC2)cc1C	-5.9%	0.5%	-27.6%	6.0%	-5.5%[9.22 µM]	u	0.5%	5.6%
COc1ccccc1NCC(=O)N/N=C/c1sccc1C	x	-1.1%	-12.9%[46.1 µM]	4.8%	0.3%	0.0%	-0.4%	x
Cc1cnc(NC(=O)CCc2ccccc2)s1	x	x	x	-0.5%	-4.8%	43.5%[activator]	-2.7%	x
COc1ccc(S(=O)(=O)N2CCCCCC2)cc1C(=O)N(C)Cc1ccc(Cl)cc1Cl	x	u	u	0.4%	x	0.0%	-1.6%	x
Cc1csc(SCC(=O)Nc2cccc(S(=O)(=O)N3CCCC3)c2)n1	3.0%	-1.2%	2.7%	-5.3%	-2.0%	-9.3%	-2.6%	-1.6%
CCCCC(=O)Nc1ccc(C(=O)Nc2ccc(OC)cc2[N+](=O)[O-])cc1	1.9%	-5.7%	u	x	2.2%	-12.4%	12.6%	15.8µM*
CC(C)CC(=O)Nc1ccc2c(c1)OCO2	x	u	u	-21.6%	0.9%	42.8%[activator]	1.2%	x
O=C(N=Nc1c(O)[nH]c2ccccc12)c1cccc(S(=O)(=O)Nc2ccccc2Cl)c1	x	x	x	-8.0%	-0.7%	26.5%	0.6%	x
O=C1CC(N2CCN(c3ccccc3Cl)CC2)C(=O)N1c1ccc(F)cc1 (stereo not drawn)	-2.1%	8.6%	21.5%	u	9.3%	x	-31.9%	4.3%
COc1ccccc1CNC(=O)C1CCC(CNS(=O)(=O)c2cccc3cccnc23)CC1 (stereo not drawn)	x	14.6%[46.1 µM]	-19.4%[46.1 µM]	3.3%	9.6%	3.1%	-0.8%	x
O=C(COC(=O)CNS(=O)(=O)c1ccc(Cl)cc1)NC1CCCCC1	x	12.0%	18.0%[46.1 µM]	31.4%	x	-19.7%	2.1%	x
CCC(Oc1ccc(F)cc1)C(=O)Nc1nc2c(s1)CCCC2 (stereo not drawn)	-10.3%	-5.4%[46.1 µM]	-24.3%[46.1 µM]	x	x	-13.1%	x	-2.7%
COc1ccc(C2C=C(c3ccc(C)cc3)Nc3ncnn32)cc1 (stereo not drawn)	20.6%	u	u	-21.4%	-141.4%	0.0%	-13.8%	u
Cc1c(C)c2c(OCC(=O)NCC(O)c3ccccc3)cc3c(c2oc1=O)CCC(C)(C)O3 (stereo not drawn)	x	x	x	-1.0%	8.0%	-23.8%	2.1%	x
O=C(Nc1ccc(Br)cc1)c1cc(S(=O)(=O)NC2CCCC2)ccc1F	0.2%	u	x	x	x	5.5%	x	0.0%
CCn1c(SCC(=O)Nc2cccc(S(=O)(=O)N(C)c3ccccc3)c2)nnc1C1CC1	x	u	10.3%	2.4%	x	-28.0%	-2.2%	x
CCOc1ccc(S(=O)(=O)N2CCN(c3ccc(C)cc3C)CC2)c2ccccc12	-1.0%	u	-4.6%[46.1 µM]	x	x	6.7%	x	3.16µM*
CC(C)CN1CCN(CCCOC(=O)Nc2cccc3ccccc23)CC1C (stereo not drawn)	x	-4.5%[46.1 µM]	u	6.6%	x	-2.6%	x	x
COc1cc(OC)cc(-c2nc3nc(C)c(CCC(=O)Nc4ccc(Cl)cc4)c(C)n3n2)c1	2.2%	10.6%[46.1 µM]	2.9%[46.1 µM]	x	x	-3.0%	x	1.4%
CCOC(=O)C1=C(C)N=C2SC(C)C(=O)N2C1c1ccccc1 (stereo not drawn)	x	6.9%[46.1 µM]	-1.9%[46.1 µM]	4.8%	6.9%	-12.2%	1.5%	x
CCOC(=O)Cn1c(CN2CCOCC2)nc2c1c(=O)[nH]c(=O)n2C	4.8%	x	x	9.6%	-0.2%	-11.5%	3.2%	13.3%
CCn1nnnc1SCC(=O)N1c2ccccc2CCc2ccccc21	-2.1%	10.9%	u	-13.4%	-5.4%	-24.1%	-2.8%	-21.5%
O=C(CNC(=O)c1ccc(F)cc1)N/N=C/c1cc(Br)ccc1OC(=O)/C=C/c1ccco1	x	x	x	0.1%	-1.1%	-7.2%	-0.6%	x
CS(=O)(=O)N1CCN(c2ccccc2NC(=O)CSc2nnc(-c3ccco3)o2)CC1	-3.0%	1.7%	u	-2.8%	-15.1%	-2.9%	5.1%	5.2%
CCOC(=O)c1nn(-c2ccc(C)cc2)c(=O)cc1OCC(=O)Nc1cccc(C)c1	x	2.4%	u	0.0%	x	-13.5%	-3.3%	x

Source: PubChem BioAssay
